Screens as filed in PubChem BioAssay.
Ecoli rRNA inh = inhibitors of bacterial rRNA selective over humanized ribosomes; E. coli WT GFP vs humanized-ribosome RFP mutants, fluorescence, 24 h; stronger effect = lower value; DMSO median 0, no signal -100; GFP signal change (wild-type ribosome), % (test concentration not listed); actives 1.6% (n = 350,000);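 active = significant combined selectivity score with lowered wild-type GFP, culture density cut under 30%, mutant RFP and density less affected; inactive = any of these conditions unmet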; note: one replicate is shown; some compounds called inactive have numbers as strong as hits
Ecoli rRNA inh OD600 = further read-out of Ecoli rRNA inh, marked with its call; OD600 change, %; measured here: OD600 growth;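 optical density of the mix in the first replicate; 0 = DMSO median and -100 = no signal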
Ecoli rRNA inh RFP = second read-out of Ecoli rRNA inh, no call of its own (marks repeat the call); RFP signal change, %; measured here: RFP humanized mutant strains;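 first replicate; 0 = DMSO median and -100 = no signal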
Active calls of the source: *; & = joins results of further samples.

Ecoli rRNA inh RFP	Ecoli rRNA inh	Ecoli rRNA inh OD600	compound
-2.4	1	-4	Cc1noc(C)c1NC(=O)Nc1cccc2c1O[C@H](CN(C)Cc1ccc(C(F)(F)F)cc1)[C@H](C)CN([C@H](C)CO)C2=O
-0.5	5	4	C[C@@H]1CN([C@H](C)CO)C(=O)Cc2cc(NC(=O)Nc3ccc(F)cc3)ccc2O[C@H]1CN(C)Cc1ccc(C(=O)O)cc1
2.0	-1	-5	C[C@@H]1CN([C@@H](C)CO)C(=O)c2cc(NC(=O)c3ccncc3)ccc2O[C@@H](C)CCCCO[C@@H]1CN(C)S(=O)(=O)c1cccs1
2.9	-2	-2	COc1ccc2c3c(n(C)c2c1)[C@@H](CO)NCC31CCN(C(=O)c2cccc(F)c2)CC1
0.0	-34	-35	Cc1cc(Br)cn2c(Cc3cccc(F)c3)c(-c3ccccc3)nc12
-3.4&-1.6	3&2	11&-2	C[C@@H]1CN([C@H](C)CO)C(=O)CCCn2cc(nn2)CO[C@H]1CN(C)C(=O)Nc1ccccc1
-2.0	-2	-4	CC1(C(=O)NS(=O)(=O)C2CC2)CCCN(C(=O)c2cc3ccccc3s2)C1 (stereo unspecified)
-1.8	-3	-4	COc1ccc(S(=O)(=O)Nc2ccc3c(c2)C(=O)N([C@@H](C)CO)C[C@H](C)[C@@H](CN(C)S(=O)(=O)c2ccc(Cl)cc2)OCCCC[C@H](C)O3)cc1
2.7*	-22*	-8.9*	CCC(=O)N1[C@H](CO)[C@@H]2c3ccccc3N(C(=O)Nc3ccc(Cl)cc3)C[C@@H]21
-2.2	1	17	COc1ccccc1NC(=O)N(C)C[C@@H]1OCc2ccccc2-c2ccccc2C(=O)N([C@H](C)CO)C[C@H]1C
-15&20	-59&-8	-77&-41	COc1cccc(-c2ccc(C3[C@H]4CNC[C@@H]3N4C(=O)Nc3cc(F)ccc3F)cc2)c1 (stereo partly specified)
0.4	-2	-3	C[C@H](CO)N1C[C@H](C)[C@@H](CN(C)C(=O)Nc2ccccc2)OCCCC[C@H](C)Oc2ccc(NC(=O)c3ccccc3)cc2C1=O
-28	-71	-81	NC(c1csc(NC(=O)Nc2cccc(Cl)c2)n1)C1CCCCC1 (stereo unspecified)
0.1	1	-1	COc1ccc(NC(=O)N(C)C[C@H]2Oc3ccc(NC(=O)CCC(F)(F)F)cc3CC(=O)N([C@@H](C)CO)C[C@H]2C)cc1
-0.5	4	0	CN(C)CCCNC(=O)C[C@H]1CC[C@@H](NC(=O)c2ccccc2F)[C@H](CO)O1
-5.3	-18	-46	CCc1csc(N2[C@@H](C#N)[C@@H](c3ccccc3C3=CCCC3)[C@@H]2CO)n1
-19	-56	-78	C[C@@H](NC(=O)C[C@@H]1CC[C@@H]2[C@H](COC[C@@H](O)CN2C(=O)Nc2cccc(Cl)c2)O1)c1ccccc1
-0.9	0	-1	COc1ccccc1-c1cn(CC[C@H]2CC[C@@H](NC(=O)C3CCC3)[C@H](CO)O2)nn1
2.1	2	9	COc1ccc2c3c([nH]c2c1)[C@@H](CO)NCC31CN(Cc2cc(F)ccc2F)C1
0.1	-4	1	COc1ccc(-c2ccccc2[C@H]2[C@@H](C#N)N(C(=O)C3CC3)[C@@H]2CO)cc1
29	-7	-16	CO[C@H]1CN(C)C(=O)c2cc(NC(=O)c3nc4ccccc4s3)ccc2OC[C@@H](C)N(Cc2cccnc2)C[C@@H]1C
-3.7	4	6	CC(=O)NC[C@H]1[C@H](c2ccccc2)[C@H](CO)N1C(=O)Cc1cccnc1
-0.3	-1	3	O=C(NCC[C@H]1CC[C@@H](NS(=O)(=O)Cc2ccccc2)[C@H](CO)O1)C1CCCC1
-1.6	6	0	C[C@@H]1CN([C@@H](C)CO)S(=O)(=O)c2ccc(C3=CCCC3)cc2O[C@H]1CN(C)C
-1.6	3	0	CN1C(=O)c2cc(NS(=O)(=O)c3ccc(Cl)cc3)ccc2OC[C@H]2O[C@H](CC(=O)O)CC[C@@H]21

Whole records, quoted from the list. Order of values: Ecoli rRNA inh RFP | Ecoli rRNA inh | Ecoli rRNA inh OD600
COc1cccc(-c2ccc(C3[C@H]4CNC[C@@H]3N4C(=O)Nc3cc(F)ccc3F)cc2)c1 (stereo partly specified) across the screens: -15&20 | -59&-8 | -77&-41
COc1ccc(-c2ccccc2[C@H]2[C@@H](C#N)N(C(=O)C3CC3)[C@@H]2CO)cc1 across the screens: 0.1 | -4 | 1
C[C@@H]1CN([C@H](C)CO)C(=O)CCCn2cc(nn2)CO[C@H]1CN(C)C(=O)Nc1ccccc1 across the screens: -3.4&-1.6 | 3&2 | 11&-2
COc1ccc(S(=O)(=O)Nc2ccc3c(c2)C(=O)N([C@@H](C)CO)C[C@H](C)[C@@H](CN(C)S(=O)(=O)c2ccc(Cl)cc2)OCCCC[C@H](C)O3)cc1 across the screens: -1.8 | -3 | -4

Entries above containing a thiophene ring, fused or not (2):
Ecoli rRNA inh RFP	Ecoli rRNA inh	Ecoli rRNA inh OD600	compound
2.0	-1	-5	C[C@@H]1CN([C@@H](C)CO)C(=O)c2cc(NC(=O)c3ccncc3)ccc2O[C@@H](C)CCCCO[C@@H]1CN(C)S(=O)(=O)c1cccs1
-2.0	-2	-4	CC1(C(=O)NS(=O)(=O)C2CC2)CCCN(C(=O)c2cc3ccccc3s2)C1 (stereo unspecified)

Later entries
Ecoli rRNA inh RFP	Ecoli rRNA inh	Ecoli rRNA inh OD600	compound
-2.0	3	1	CCC(=O)N1C[C@@H](C)[C@@H](OC)CN(C)C(=O)c2ccc(NC(=O)c3cc(C)on3)cc2OC[C@@H]1C
0.5	-1	0	C[C@H]1CN([C@@H](C)CO)S(=O)(=O)c2ccc(-c3ccc(C(=O)N(C)C)cc3)cc2O[C@@H]1CN(C)C(=O)Nc1ccccc1F
-1.4	-2	-11	O=C(NCC[C@H]1CC[C@H](NC(=O)C2CCCC2)[C@H](CO)O1)c1cc(Cl)cc(Cl)c1
0.4	-2	-4	COc1ccccc1-c1ccc([C@H]2[C@@H](CO)N(C(C)=O)C23CN(C(C)=O)C3)cc1
3.9	-7	-25	C[C@H]1CN([C@@H](C)CO)S(=O)(=O)c2ccc(C#CC3CC3)cc2O[C@@H]1CN(C)Cc1cncnc1
-0.3	5	-3	CCCC#Cc1cnc2c(c1)C(=O)N([C@@H](C)CO)C[C@H](C)[C@H](CN(C)C(=O)CN1CCOCC1)O2
0.0	1	6	COCC(=O)Nc1ccc2c(c1)C(=O)N(C)C[C@H](OC)[C@H](C)CN(Cc1cncnc1)[C@@H](C)CO2
0.4	-1	2	C[C@H]1CN([C@@H](C)CO)S(=O)(=O)c2ccc(C3=CCCC3)cc2O[C@@H]1CN(C)C(=O)c1ccccn1
-0.2	4	13	Cc1noc(C)c1NC(=O)N(C)C[C@@H]1Oc2ncc(C#CC(C)C)cc2C(=O)N([C@@H](C)CO)C[C@H]1C
-0.8	0	5	Cc1noc(C)c1S(=O)(=O)N(C)C[C@@H]1OCCCC[C@@H](C)Oc2ccc(NC(=O)Nc3cccc4ccccc34)cc2C(=O)N([C@@H](C)CO)C[C@H]1C
-0.9	2	2	CCC(=O)Nc1ccc2c(c1)OC[C@@H](C)N(C(=O)COC)C[C@@H](C)[C@H](OC)CN(C)C2=O
-1.7	1	6	Cc1noc(C)c1S(=O)(=O)N(C)C[C@@H]1OCc2cn(nn2)CCCC(=O)N([C@H](C)CO)C[C@@H]1C
-0.5	4	11	CCOc1cccc(Cc2c[nH]c(=O)[nH]c2=O)c1
-1.4	-4	6	C[C@@H]1CCCCO[C@H](CN(C)C(=O)c2ccccc2)[C@H](C)CN([C@@H](C)CO)C(=O)c2cc(NC(=O)Nc3cccc4ccccc34)ccc2O1
-5.0	7	3	CCC(=O)N1CC2(C1)CN(CC1CCOCC1)[C@@H](CO)c1c2c2ccc(OC)cc2n1C
1.9	-7	-8	C/C=C/c1ccc2c(c1)O[C@H](CN(C)C(=O)c1cccc(F)c1)[C@H](C)CN([C@H](C)CO)S2(=O)=O
-2.7	-1	6	COc1ccc(NC(=O)Nc2ccc3c(c2)C(=O)N([C@H](C)CO)C[C@@H](C)[C@H](CN(C)Cc2ccccc2)O3)cc1
-5.3	-1	-4	C[C@H]1CN([C@@H](C)CO)C(=O)c2cc(Br)cnc2O[C@@H]1CN(C)Cc1ccccn1
27	-16	-52	c1ccc(OCCNc2nc(NCC3CC3)nc3cc(-c4ccccc4)sc23)cc1
1.3	3	10	C[C@H](CO)N1C[C@H](C)[C@@H](CN(C)CC2CCCCC2)Oc2ccc(NC(=O)Cn3cnnn3)cc2CC1=O
0.7	0	-12	O=C(c1ccccn1)N1C[C@H]2[C@@H](c3ccccc31)[C@H](CO)N2C(=O)C1CCCCC1
-2.1	-2	5	C[C@H]1CN([C@@H](C)CO)C(=O)c2cccc(NC(=O)Nc3ccccc3)c2O[C@@H]1CN(C)Cc1ccncc1
0.3	3	6	CN(C)CC#Cc1ccc([C@H]2[C@@H](CO)N3C(=O)CN(C(=O)c4cccc(F)c4)C[C@H]23)cc1
0.6	7	-1	CC(C)C[C@@H]1CN(CCCC[C@H]2CNC(=O)C(=O)N2CCC2CCCCC2)C(=O)C(=O)N1CCC1CCCCC1
-2.2	1	-2	CO[C@H]1CN(C)C(=O)c2ccc(NC(=O)Nc3ccccc3F)cc2OC[C@@H](C)NC[C@H]1C

(next part)
Ecoli rRNA inh RFP	Ecoli rRNA inh	Ecoli rRNA inh OD600	compound
-0.2	1	-3	C[C@H](CO)N1C[C@H](C)[C@@H](CN(C)Cc2ccc(Oc3ccccc3)cc2)Oc2ccc(NS(=O)(=O)c3ccc(Cl)cc3)cc2C1=O
-4.0	1	12	COc1ccc2c3c(n(C)c2c1)[C@H](CO)N(C(=O)c1cnccn1)CC31CN(C(=O)c2cnccn2)C1
-2.8	-1	0	CN(C)C(=O)[C@@H]1[C@@H](CO)[C@@H]2Cn3c(ccc(C4=CCCCC4)c3=O)[C@H]1N2CC1CC1
-4.8	2	7	C[C@H]1CN([C@@H](C)CO)C(=O)c2cc(NC(=O)Cn3cnnn3)ccc2O[C@@H]1CN(C)Cc1ccccc1
0.2	13	12	CCOC(=O)N1CCC(=NNC(N)=O)C1
1.0	2	3	CC=Cc1ccc2n(c1=O)C[C@@H]1[C@@H](CO)[C@H](C(=O)Nc3ccccc3)N(CC)[C@H]21 (mixture of isomers)
-7.0	-21	-49	CCCC#Cc1ccc2c(c1)O[C@@H](CN(C)C(=O)CC1CC1)[C@H](C)CN([C@@H](C)CO)S2(=O)=O
-5.7	-24	-54	C#CCNC(=O)C[C@@H]1C[C@@]2(C(=O)OCC)CCCC=C2N(Cc2cccc3ccccc23)C1=O
-6.6	-5	-2	C[C@@H]1CCCCO[C@@H](CN(C)C(=O)Nc2cccc3ccccc23)[C@@H](C)CN([C@@H](C)CO)C(=O)c2cc(NC(=O)c3ccccc3)ccc2O1
-0.6	6	10	COc1ccc(C#Cc2ccc3c(c2)O[C@H](CN(C)C(=O)Nc2cccc(OC)c2)[C@H](C)CN([C@H](C)CO)S3(=O)=O)cc1
-5.1	0	12	O=C(C[C@@H]1CC[C@@H]2[C@H](COC[C@@H](O)CN2CC2CCOCC2)O1)NCC1CCCCC1
4.8	-9	-16	CCCNC(=O)[C@@H]1[C@@H](CO)[C@@H]2Cn3c(ccc(/C=C/c4ccccc4)c3=O)[C@@H]2N1CC1CC1
0.3	-6	-7	Cc1cccc(S(=O)(=O)N2C[C@H]3[C@@H](c4ccccc42)[C@@H](CO)N3C(=O)CC2CC2)c1
13	4	16	CN(C)S(=O)(=O)c1ccc2c(c1)nc(CCC(=O)NCC(=O)Nc1ccc(F)c(F)c1F)n2C
2.6	2	1	Cc1ccc(NC2CCCN(C(=O)c3cc(C(C)C)nn3C)C2)cc1C (stereo unspecified)
0.5	2	0	O=C(C[C@H]1C=C[C@@H](NC(=O)Nc2ccc(F)cc2)[C@H](CO)O1)NCc1ccccn1
32	4	-6	CCCNC(=O)C[C@H]1CC[C@H]2[C@@H](COC[C@H](O)CN2C(=O)C2CCOCC2)O1
-0.2	-6	-17	C[C@@H]1CN([C@H](C)CO)S(=O)(=O)c2ccc(-c3ccc(C#N)cc3)cc2O[C@@H]1CN(C)Cc1ccccn1
1.9	2	1	CC(C#N)(NC(=O)CN1CCN(S(=O)(=O)c2cccc(F)c2)CC1)C1CC1 (stereo unspecified)
30	3	-32	CN1c2ccc(-c3ccccc3F)cc2[C@H]2[C@H](CCN2C(=O)Nc2ccc(F)cc2)[C@H]1CO
3.2	2	5	CCCNC(=O)Nc1ccc2c(c1)OC[C@@H](C)N(CC1CCCC1)C[C@@H](C)[C@@H](OC)CN(C)C2=O
0.5	4	8	O=C(NCCN1CCCC1)c1cc2c(c(-c3cccc(C4=CCCC4)c3)n1)[C@@H](CCO)N(CC1CC1)C2
27	6	17	CCNC(=O)C[C@@H]1CC[C@H]2[C@@H](COC[C@@H](O)CN2C(=O)C2CCOCC2)O1
2.6	1	6	O=C(C[C@H]1CC[C@H]2[C@@H](COC[C@H](O)CN2Cc2cc(F)ccc2F)O1)N1CCc2ccccc2C1
-1.7	-4	-10	CC(C)NC(=O)Nc1cccc2c1O[C@@H](CN(C)Cc1ccc(C(=O)Nc3ccccc3N)cc1)[C@@H](C)CN([C@@H](C)CO)C2=O
-1.2	1	5	COc1ccc(CN(C)C[C@@H]2OCCCC[C@H](C)Oc3ccc(NS(C)(=O)=O)cc3C(=O)N([C@H](C)CO)C[C@H]2C)cc1
-3.5	1	-4	Cc1cccc(-c2ccc([C@@H]3[C@H]4CN(S(=O)(=O)c5cccs5)CCCCN4[C@H]3CO)cc2)c1
2.5	2	3	Cc1ccc(-c2ccc3c(c2)O[C@H](CN(C)C(=O)C2CCCCC2)[C@H](C)CN([C@H](C)CO)S3(=O)=O)cc1

A portion of the library; the hit share may differ from the screen's.
